From PubChem BioAssay
Vaccinia mCherry: inhibitors of vaccinia virus infection (mCherry reporter signal); Vaccinia virus mCherry reporter infection, fluorescence; about a quarter of the inactives have no number; Potency, µM (series often up to 36.5 µM), without a hit: top-dose activity change, negative = inhibition, hits mostly inhibitors; hit rate 0.63% among 310,000; AID 720579; active = well fitted inhibition curve with a large enough effect; inconclusive = small, poorly fitted or top-dose-only effect; inactive = no such curve, though single readings can be large or run the other way; tested in A549 cells; further: nearly all actives have a fitted effect of over 35% in size; inactives centre near -10
VACV Venus inh: vaccinia inhibition (Venus reporter) | Vaccinia virus Venus reporter expression, fluorescence | Potency, µM (highest dose often 36.5 µM), for the others: at the highest dose activity change, negative = inhibition, usual class: inhibitors | hit rate 0.46% among 330,000; active means well fitted inhibition curve with a large enough effect; inconclusive means small, poorly fitted or top-dose-only effect; inactive means no such curve, though single readings can be large or run the other way; tested in A549 cells; further: nearly all actives have a fitted effect of over 30% in size; inactives centre near -10
Active calls of the source: *; i = inactive; u = inconclusive; x = not tested or not shown; & = joins results of further samples; [ ] = another dose, or the depositor's remark. On the % scale 0 is the no-effect control and ±100 the full control effect; potency means the concentration at half of the fitted maximal effect. Not a hit list. About 0.82% of those tested had a hit in this group.

SMILES	Vaccinia mCherry	VACV Venus inh
CCCCCc1cc(=O)oc2c(C(CCN3CCCCC3)c3ccc4c(c3)OCO4)c(OC)cc(OC)c12 (configuration not stated)	u	14µM*
Cc1ccnc(NC(=O)c2cc(F)c(F)cc2Cl)n1	-5%	-8%
COc1cc2c(cc1OC)C(=O)N1[C@H]3c4cc(C)ccc4OC[C@@H]3[C@H](c3ccccc3)[C@]1(C)C(=O)N2	-7%	u
CC1(C)Cc2c(sc3nc4n(-c5ccccc5)cnn4c(=O)c23)CO1	-11%	-9%
COc1ccc(Cl)cc1C(=O)NCC(C)C	-12%	-3%
COc1cc2nc3occc3c(OC)c2cc1OC	i	-11%
Cn1ncc(Br)c1C(=O)NC1C2CC3CC(C2)CC1C3 (configuration not stated)	-20%	-9%
N#CCCN(C(=O)COC(=O)c1ccc2c(c1)NC(=O)CS2)c1ccc2c(c1)OCCO2	i	-13%
COc1cc(C)c(CN2CCN(c3ncccn3)CC2)cc1C	-3%	-6%
Cc1cccc(N2CCN(C(=O)c3ccc(S(=O)(=O)N(C)c4ccccc4)cc3)CC2)c1C	u	u
Cc1cc(Br)cn2c(Cc3ccsc3)c(C(C)(C)C)nc12	5%	5%
COc1ccc(CCNC(=O)c2c(O)nc3ccccn3c2=O)cc1	1%	2%
CCCC(C)NC(=O)CSc1nc(-c2ccccc2)cn1N (configuration not stated)	-3%	-2%
COc1cc(C=C2CN(C)C(=O)C2=O)ccc1O	i	0%
COc1ccc(-c2noc(CN(Cc3nccn3C)C(C)C)n2)cc1	-5%	3%
Cc1ccc(S(=O)(=O)Nc2cccc(C(=O)NCCCN3CCOCC3)c2)cc1F	-13%	-18%
CCCCNC(=O)CS(=O)Cc1nc(-c2cccc(C)c2)oc1C (configuration not stated)	-24%	-8%
O=C1N[C@@H](Cc2ccccc2)C(=O)N2[C@H]1C[C@]1(Br)c3ccccc3N(S(=O)(=O)c3ccccc3)[C@H]21	i	-12%
COc1cccc(NC(=O)Cn2c(=O)n(Cc3ccccc3)c(=O)c3c4c(sc32)CN(C(C)=O)CC4)c1	-5%	-15%
O=C(NC1CC1)c1ccc2c3c(cccc13)CC2	-13%	-6%
COCCc1nn2c(=O)cc(COC(=O)c3ccc(C(C)(C)C)cc3)nc2s1	-13%	-15%
CN1C(=O)CSC1=NC12CC3CC(CC(C3)C1)C2	-8%	2%
Cc1ccc(CNC2CCCCC2)s1	-10%	-13%
NC(=O)C1CCN(c2nc(-c3ccccc3)nc3c2oc2ccccc23)CC1	-3%	-11%
Cn1c(SC/C=C/c2ccccc2)nnc1-c1cnccn1	x	-14%

Seven structures from above, arranged by number of heavy atoms, lowest first:
SMILES	Vaccinia mCherry	VACV Venus inh
Cc1ccc(CNC2CCCCC2)s1	-10%	-13%
COc1ccc(Cl)cc1C(=O)NCC(C)C	-12%	-3%
Cn1c(SC/C=C/c2ccccc2)nnc1-c1cnccn1	x	-14%
COc1cc(C)c(CN2CCN(c3ncccn3)CC2)cc1C	-3%	-6%
N#CCCN(C(=O)COC(=O)c1ccc2c(c1)NC(=O)CS2)c1ccc2c(c1)OCCO2	i	-13%
Cc1cccc(N2CCN(C(=O)c3ccc(S(=O)(=O)N(C)c4ccccc4)cc3)CC2)c1C	u	u
COc1cc2c(cc1OC)C(=O)N1[C@H]3c4cc(C)ccc4OC[C@@H]3[C@H](c3ccccc3)[C@]1(C)C(=O)N2	-7%	u

(continued)
SMILES	Vaccinia mCherry	VACV Venus inh
CCN1C[C@@H]2[C@@H]3C(=O)N(C)C(=O)[C@@H]3[C@](Cc3ccccc3)(C(=O)OC)N2C1=NC1CCCCC1	i	-24%
O=C(CCc1ccc(O)cc1)N1C[C@H]2C[C@@H](C1)c1cccc(=O)n1C2	-7%	-3%
Cc1cc(C)nc(SCCC(=O)Nc2ccc(F)cc2)n1	-8%	-12%
O=C(CCn1c(=O)c2sccc2n(Cc2cc(=O)n3ccccc3n2)c1=O)NCc1ccco1	i	-19%
COC(=O)C1=C(c2ccc(F)cc2OCc2ccccc2)C[C@@H]2CC[C@H]1N2C(=O)NCCOc1ccc(OC)cc1	-21%	u
O=C(O)c1ccc(OCC(O)Cn2c3ccccc3c3ccccc32)cc1 (configuration not stated)	-21%	-9%
Cn1c(N)c(C(=O)COC(=O)c2cc(S(=O)(=O)NCc3ccccc3)ccc2O)c(=O)n(C)c1=O	i	-5%
Cn1cc([N+](=O)[O-])c(C(=O)N/N=C/c2ccccc2)n1	-3%	-5%
O=C(NCCc1ccccc1)[C@@H]1CC=C[C@@H]2CCN(Cc3ccc(Cl)c(Cl)c3)C(=O)[C@@H]21	u	u
CCCOc1ccc(C(=O)NCC(C)(C)N2CCOCC2)cc1	i	-4%
O=C(CSc1ncccn1)N1CCC(Cc2ccccc2)CC1	-11%	-3%
COC(CNc1ccc([N+](=O)[O-])c(NCC(OC)OC)c1C#N)OC	-8%	7%
C=CCNC(=S)NCC1COc2ccccc2O1 (configuration not stated)	-18%	-6%
CC(=O)Nc1ccc(NC(=O)CSc2nc3ccccc3c(=O)n2CCCN2CCOCC2)cc1	-19%	-21%
CC1=C(C(=O)OCc2ccc3c(c2)OCO3)C(c2ccccc2)NC(=O)N1 (configuration not stated)	-29%	u
N#CCCN(C(=O)COC(=O)c1cc2ccccc2oc1=O)c1ccccc1	-9%	-6%
COc1ccc(C(=O)c2oc3ccccc3c2NC(=O)COc2ccc(C)cc2)cc1	-18%	-7%
C=CCn1c(=O)c(C(=O)NCCNCC)c(O)c2ccccc21	-10%	-5%
CNc1c(NS(=O)(=O)c2ccc(OC)c(Cl)c2)c(=O)oc2ccccc12	i	-8%
CCC(C)[C@H](NC(=O)N1CCCC1)C(=O)O (some centres not stated)	0%	-4%
COc1ccc2cc(CCC(C)=O)ccc2c1	-14%&-18%	-18%&-16%
CCOC(=O)N1CCC(N2Cc3cccc(C(=O)Nc4ccc(OC)c(OC)c4)c3C2=O)CC1	i	2%
COc1ccc(CCNC(=S)Nc2cccc(C)c2)cc1	x	-25%
CC(=O)Nc1ccc2c(CSc3nnc(-c4cccnc4)n3-c3ccc(C)cc3C)cc(=O)oc2c1	-16%	-15%
CN(C)c1ccc(NC(=O)CC(NCc2cccnc2)C(=O)O)cc1 (configuration not stated)	9%	-6%

Later entries.
SMILES	Vaccinia mCherry	VACV Venus inh
COCCNc1c(-c2ccc(O)cc2)nc2ccc(Cl)cn12	x	-18%
CCOC(=O)[C@@H](C)N(C(=O)OC(C)(C)C)S(=O)(=O)N(Cc1ccccc1)[C@H](C(=O)OC)C(C)C	-14%	-11%&-2%
COc1cc(OC)cc(C(=O)NCCSCc2ccc(Cl)cc2)c1	i	-10%
CC(=O)Nc1ccc(Nc2ccc3nonc3c2[N+](=O)[O-])cc1	-2%	-5%
CCc1ccc(CNC(=O)c2ccc(CS(=O)(=O)Cc3cccc(C)c3)o2)cc1	-9%	-15%
CCOc1ccc(NC(=O)Nc2cc3c(cc2N2CCCCC2)n(C)c(=O)n3C)cc1	u	u
COc1ccc(OC)c(C(O)C(C)N)c1 (configuration not stated)	i	-15%
CC(=O)c1cccc(NC(=O)c2cc3ccccn3n2)c1	0%	2%
O=C(CN1CCNC(=O)C1)NCCc1ccc(Cl)cc1Cl	i	-6%
O=C(Nc1ccc(Cl)cc1)[C@@H]1[C@@H]2C(=O)N(c3cccc(F)c3)C(=O)[C@@H]2[C@H]2C=CC=NN21	-13%	4%
COc1cc(NC(=O)c2ccc(OC)c([N+](=O)[O-])c2)ccc1NC(=O)c1ccco1	-7%	-3%
COc1ccc(C(=O)NC(CC(C)C)C(=O)O)cc1 (configuration not stated)	i	-9%
O=C(NCC1CCN(S(=O)(=O)c2ccccc2)CC1)Nc1ccccc1	i	-17%
Nn1c(-c2ccc(O)cc2)nnc1-c1ccc(O)cc1	-10%	7%
COc1ccccc1N1CCN(C2CCCN(C(=O)Cn3cccn3)C2)CC1 (configuration not stated)	i	-7%
OC[C@@H]1CN(Cc2cccs2)C[C@H](n2cnc3c(NCc4ccc(F)cc4)ncnc32)O1	u	-20%
CCCCOc1ccc(CNC(=O)c2cccc(NC(=O)N3CCSc4ncccc43)c2)cc1	-17%	-20%
COC(=O)C1=C(c2cccc(C#N)c2)C[C@@H]2CC[C@H]1N2C(=O)NC1CCCCC1	-6%	-11%
Cc1cccc(N2CCN(C(=O)N3CCOCC3)CC2)c1C	-22%	u
COc1ccc(S(=O)(=O)NNC(=O)c2csc(-n3nc(C)cc3C(F)(F)F)n2)cc1	-24%	-9%
O=C(NCc1ccc(C(F)(F)F)cc1)C1CC(c2c(Cl)cccc2Cl)=NO1 (configuration not stated)	-14%	-17%
CC(C(=O)Nc1ccccc1C(=O)N1CCOCC1)N(c1ccccc1)S(C)(=O)=O (configuration not stated)	-18%	-6%
CCCC(=O)C1=C(O)C(C(=O)OC)C(C)(C)CC1=Nc1ccncc1 (configuration not stated)	x	-1%
COc1ccc(C(=O)N/N=C(\C)CC(=O)Nc2ccccn2)cc1OC	-1%	-8%
Cc1nc2ccc(NC(=O)c3ccc(Cl)c([N+](=O)[O-])c3)cc2s1	-1%	-3%

Copied from the list:
VACV Venus inh, `O=C(Nc1ccc(Cl)cc1)[C@@H]1[C@@H]2C(=O)N(c3cccc(F)c3)C(=O)[C@@H]2[C@H]2C=CC=NN21` reads 4%
VACV Venus inh, `O=C(CN1CCNC(=O)C1)NCCc1ccc(Cl)cc1Cl` reads -6%
VACV Venus inh, `OC[C@@H]1CN(Cc2cccs2)C[C@H](n2cnc3c(NCc4ccc(F)cc4)ncnc32)O1` reads -20%

The list goes on.
SMILES	Vaccinia mCherry	VACV Venus inh
O=C(NCc1ccccn1)c1cn(CCc2ccccc2)nn1	-20%	1%
CCCN1Cc2cccc(C(N)=O)c2C1=O	x	6%
O=C(/C=C/c1cn(CC(O)CN2CCCCC2)c2ccccc12)c1ccccc1 (configuration not stated)	-7%	-15%
CSc1nc2sc3c(c2c(=O)[nH]1)CCc1ccccc1-3	-4%	-14%
COc1ccccc1C(=O)NNC(=O)c1cccc(Cl)c1	-5%	4%
Cc1ccc(S(=O)(=O)N2CCN(C(=O)CSc3nccn3C)CC2)cc1	-7%	2%
COc1ccc(C(=O)Nc2ccc(NC(=O)CSc3nnc(-c4ccncc4)n3C)cc2)cc1	i	7%
Cn1nc(C(=O)OCCN2C(=O)c3ccccc3C2=O)c2ccccc2c1=O	-23%	-12%
COC(=O)C1CCCCN1Cc1nc(N(C)C)c2ccccc2n1 (configuration not stated)	-8%	-11%
COC(=O)c1c(NC(=O)CSc2ncn[nH]2)sc(C)c1C	-11%	-19%
Cc1ccc2nc3n(c(=O)c2c1)-c1cc2ccccc2cc1C(=O)NC3Cc1ccc(O)cc1 (configuration not stated)	u	u
COC(=O)c1cc2ccsc2n1CC(=O)NCC1CCCO1 (configuration not stated)	-11%	-4%
COCCNC(=O)c1ccccc1NC(=O)c1ccc(Cl)c(S(=O)(=O)Nc2ccc(C)cc2C)c1	i	-19%
Cc1ccc(CN2CCN(CC(=O)N=Nc3c(O)[nH]c4ccccc34)CC2)cc1	-27%	-22%
CCCCCn1c(CN2CCN(C(=O)OCC)CC2)nc2c1c(=O)n(C)c(=O)n2C	u	u
O=C(CN(c1ccccc1)S(=O)(=O)c1ccccc1)NCCSCc1ccco1	-6%	-1%
O=C(COC(=O)C1(c2ccc(F)cc2)CCCC1)N1CCOCC1	x	5%
Nc1ccc[n+](Cc2ccccn2)c1	x	-15%
CCc1nc2c(OCc3cc(Cl)cc(Cl)c3)cccn2c1N(C)C(=O)c1ccccc1F	-11%	-6%
CCCCn1c(CNC(=O)c2cccs2)nc2ccccc21	i	-10%
COc1cc(NC(=O)COc2ccccc2Cl)ccc1NC(=O)c1cccs1	-28%	-16%
O=C(CNC(=O)c1cccc(OC(F)F)c1)OCc1cc(=O)n2cc(Br)ccc2n1	-9%	-12%
Cc1ccc2nc(SCC(=O)N3CCC(C)CC3)nc(=O)n2c1	-3%	-2%
COc1ccc(C(=O)COC(=O)C(C(C)C)N2C(=O)C3C4C=CC(C4)C3C2=O)cc1 (configuration not stated)	-14%	-5%
CCOc1cc(N2CCOCC2)c(OCC)cc1NC(=O)C1=NN(c2cccc(C)c2)C(=O)CC1	u	-8%

Carrying on.
SMILES	Vaccinia mCherry	VACV Venus inh
CCCC(=O)C1=C(N2CCCCC2)CC(C)(C)C(C(=O)OC)C1=O (configuration not stated)	-2%	-13%
O=C(COCc1cc(-c2ccc3c(c2)OCO3)on1)N1CCN(c2cccc(C(F)(F)F)c2)CC1	-4%[7.34 µM]	0%[7.34 µM]
O=c1[nH]cc(S(=O)(=O)c2ccccc2)[nH]1	10%	0%
O=C(CCN1C(=O)[C@@H]2Cc3ccccc3CN2C1=O)N[C@@H](Cc1ccccc1)C(=O)O	8%	2%
CC(C)=CCc1c(O)c(CC=C(C)C)c2occ(-c3ccc(O)cc3)c(=O)c2c1O	-20%	-6%
CCN(CC)S(=O)(=O)c1ccc(NC(=O)COC(=O)CNC(=O)C2CCCCC2)cc1	-12%	-8%

7 records drawn at random from those above, as already listed:
SMILES	Vaccinia mCherry	VACV Venus inh
Nn1c(-c2ccc(O)cc2)nnc1-c1ccc(O)cc1	-10%	7%
CCOc1ccc(NC(=O)Nc2cc3c(cc2N2CCCCC2)n(C)c(=O)n3C)cc1	u	u
Cn1c(SC/C=C/c2ccccc2)nnc1-c1cnccn1	x	-14%
CCOc1cc(N2CCOCC2)c(OCC)cc1NC(=O)C1=NN(c2cccc(C)c2)C(=O)CC1	u	-8%
Cc1ccc(S(=O)(=O)N2CCN(C(=O)CSc3nccn3C)CC2)cc1	-7%	2%
Nc1ccc[n+](Cc2ccccn2)c1	x	-15%
CCOC(=O)[C@@H](C)N(C(=O)OC(C)(C)C)S(=O)(=O)N(Cc1ccccc1)[C@H](C(=O)OC)C(C)C	-14%	-11%&-2%
